NPYLR7 ag – mosquito NPYLR7 agonism; HEK293T NPYLR7/Galpha15, GCaMP6s calcium fluorescence; activation, % at 10 µM; 270,000 compounds, 0.15% hits; AID 1259423; in the data active = activation above about 40%;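 also: 0% = vehicle and 100% = reference agonist at the receptor; some compounds past the cut are filed as inactive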
NPYLR7 ag max-min – second read-out of NPYLR7 ag, no call of its own (marks repeat the call); activation, %; measured here: Max-Min RFU normalised activation; some inactives read as strong as hits;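 span of the calcium signal over five minutes; 0% = vehicle and 100% = native peptide agonist; compound fluorescence can raise it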
Starred values were filed as active, the others as inactive.

structure,NPYLR7 ag,NPYLR7 ag max-min
O=C(N=Nc1c(O)[nH]c2ccc(Br)cc12)c1cc(-c2ccc(Cl)cc2)n[nH]1,3,7
O=C1OCCC1Sc1nc2sc3c(c2c(=O)[nH]1)CCCC3 (centres undefined),1,-2
Cc1ccc(C(=O)N2CCN(C(=O)NC(CN3CCCCCC3=O)c3ccccc3)CC2)cc1F (centres undefined),0,-1
O=C(c1cccs1)N1CCN(S(=O)(=O)c2ccc3ccccc3c2)CC1,14,5
CSC1CCCC1N(C)Cc1nnc(C(C)C)o1 (centres undefined),9,6
COc1cc(-c2nc3ccccn3c2NC(C)(C)CC(C)(C)C)ccc1OC(=O)c1ccc(Cl)cc1,10,14
COCCCN(CC(=O)N1CCc2sccc2C1COc1ccccc1F)S(=O)(=O)c1ccc(OC)cc1 (centres undefined),-1,2
O=C1CCC(CCC(=O)N2CCC(C(O)c3cccnc3)CC2)(Cc2cccc3ccccc23)N1 (centres undefined),2,-2
CCCS(=O)(=O)N1CCN(c2cc(-n3ccnc3)ncn2)CC1,-14,-20
O=C(c1cc(F)cc(C(F)(F)F)c1)N1CCN(c2nccc(-c3ccc4c(c3)OCO4)n2)CC1,-9,-14
O=C(C1CCCC1)N(Cc1ccco1)Cc1c(-c2ccccc2)noc1N1CCCCC1,0,27
CCc1nc(C)ncc1C(=O)NCC(O)c1cccs1 (centres undefined),2,25
Cn1c(SCC(=O)C2CCCCC2)nnc1-c1ccc(Cl)cc1,6,3
O=C(NC(c1ccc(Cl)cc1)c1ccsc1)C1CCN(CCCc2ccccc2)CC1 (centres undefined),-7,-5
OCCn1ccnc1-c1cccc(-c2ccco2)c1,17,8
O=Cc1cc(=O)n2c3c(cccc13)CCC2,-11,-13
CCc1ccc(CN2CCC(CNS(=O)(=O)C3CC3)C2)nc1 (centres undefined),-7,-8
Cc1ccc(NC(=O)CSc2cn(CC(=O)N3CCCC3)c3ccccc23)cc1,-3,-3
O=[N+]([O-])C(Br)([N+](=O)[O-])C12CC3CC(CC(C3)C1)C2,-10,-16
CCN(CC(=O)Nc1ccc2c(c1)OCCO2)C(=O)CCN1C(=O)C(C)Oc2ccccc21 (centres undefined),-4,-7
Cc1ccccc1Cn1cc(C(=O)NCc2cccc(C(F)(F)F)c2)sc1=O,15,6
COCCCn1c(SCC(=O)Nc2ccc(SC)cc2)n[nH]c1=O,3,0
CC(=O)Nc1ccc(CN2CCC(CO)(Cc3ccccc3C(F)(F)F)CC2)cc1,10,-3
CC(C)Oc1ccccc1NC(=O)NC(CCO)C(C)C (centres undefined),0,-3
Ic1ccccc1C=NNc1nncc2ccccc12,-5,-6
CC(C)N(Cc1csc(COc2cccc(Cl)c2)n1)C(=O)C1CCCC1,14,12
O=C(NC(NC(=S)Nc1cccc(O)c1)C(Cl)(Cl)Cl)c1ccccc1[N+](=O)[O-] (centres undefined),-15,-20
Cc1c(C(=O)N(C)Cc2ccc(F)cc2)sc(=O)n1Cc1ccccc1C#N,-6,-2
CCc1nc2c(OCc3ccccc3C)cccn2c1N(C)C(=O)c1ccco1,9,-4
O=S(=O)(c1ccc(Cl)c(Cl)c1)N1CCCCC1,5,3

Three entries out of the list, sorted by number of heavy atoms, ascending.
structure,NPYLR7 ag,NPYLR7 ag max-min
O=Cc1cc(=O)n2c3c(cccc13)CCC2,-11,-13
Ic1ccccc1C=NNc1nncc2ccccc12,-5,-6
O=C(NC(NC(=S)Nc1cccc(O)c1)C(Cl)(Cl)Cl)c1ccccc1[N+](=O)[O-] (centres undefined),-15,-20

Reformatted: entries from further up.
CSC1CCCC1N(C)Cc1nnc(C(C)C)o1 (centres undefined)
  NPYLR7 ag: 9; NPYLR7 ag max-min: 6
O=C(c1cccs1)N1CCN(S(=O)(=O)c2ccc3ccccc3c2)CC1
  NPYLR7 ag: 14; NPYLR7 ag max-min: 5
O=C1CCC(CCC(=O)N2CCC(C(O)c3cccnc3)CC2)(Cc2cccc3ccccc23)N1 (centres undefined)
  NPYLR7 ag: 2; NPYLR7 ag max-min: -2
CCc1nc2c(OCc3ccccc3C)cccn2c1N(C)C(=O)c1ccco1
  NPYLR7 ag: 9; NPYLR7 ag max-min: -4

The list goes on.
structure,NPYLR7 ag,NPYLR7 ag max-min
Cc1cccn2c(CC(=O)N(C)C(C)c3cccs3)cnc12 (centres undefined),1,-18
CCNC(=O)C1(C)CCCN(Cc2cc(C)ccc2C)C1 (centres undefined),1,-1
OCC1CCCN(C(=S)NCCc2ccccc2)C1 (centres undefined),-3,-6
COc1cccc(CN(C(=S)Nc2ccc(F)cc2)C2CC2)c1OCc1nc(CO)cs1,2,7
COc1cc(C2SC(C)=Nc3c2c(=O)[nH]n3C2CCCCCC2)cc(OC)c1O (centres undefined),3,37
CCNC(=S)N1CCN(S(=O)(=O)c2ccc(Cl)s2)CC1,12,13
O=C(NCc1ccc(Oc2ccc(F)cc2)cc1)C1CC=CCC1 (centres undefined),1,1
Cc1ncoc1C(=O)N1CCc2c([nH]c3ccccc23)C1C(C)(C)C (centres undefined),2,-4
O=C(OCc1cccc([N+](=O)[O-])c1)c1cnccn1,-2,-5
Cc1ccc(OCC(=O)N=Nc2c(O)[nH]c3c(C)cc(C)cc23)c(Br)c1,-4,-10
CC(C)(C)OC(=O)N1CCC(C(=O)N2CCCC2c2nnc3c(C(F)(F)F)cccn23)CC1 (centres undefined),0,-1
CC(=O)Nc1ccc(/C=C/c2ccccc2)cn1,-3,-3
COc1nc(-c2ccc(C(F)(F)F)cc2)n(-c2ccc(NC(=O)C(C)(C)CCl)cc2)n1,-3,7
COc1ccc(C(C)N(C)NC(=O)C(O)(c2ccc(OC)cc2)c2ccc(OC)cc2)cc1 (centres undefined),1,0
CN(CCC(=O)Nc1ccc(S(N)(=O)=O)cc1)Cc1cccs1,10,3
CCOC(=O)c1nn(-c2ccccc2)c(=O)c2c(NC(=O)c3cccc([N+](=O)[O-])c3C)scc12,2,-1
CCCn1nc(C(=O)Oc2ccc(C(=O)CC)cc2)c2ccccc2c1=O,-5,-8
CCc1cnc(C)nc1-c1cc(NCc2ccncc2)nc2[nH]ccc12,9,4
COc1cccc(C(C2Sc3ncnn3C2=O)N2CCN(Cc3ccccc3)CC2)c1 (centres undefined),15,7
COc1cc(CN2CCCn3cccc3C2c2cc([N+](=O)[O-])ccc2Cl)cc(OC)c1 (centres undefined),5,3
CCS(=O)(=O)Oc1cc(CN(Cc2ccco2)C(=O)C2CCC2)ccc1OC,10,4
CC1CCC(C(C)C)C(OC(=O)Cn2c(-c3ccccc3)[n+](C)c3ccccc32)C1 (centres undefined),4,4
COc1ccc(-c2cc(CN3CCN(S(=O)(=O)c4ccc(F)c(Cl)c4)CC3)on2)cc1,-4,-6
Cc1c(C)n2c3c(=O)n(CC(N)=O)c(=O)n(C)c3nc2n1C(C)C,-9,-9
CC(=O)Oc1c(-c2ccc(NC(=O)c3ccc4c(c3)OCO4)cc2)c(C2CC2)nn1-c1cccc(F)c1,-2,6
CCOCCCN1CC2=C(C1=O)C(c1ccc(OCC)cc1)NC(=O)N2 (centres undefined),5,2
N#Cc1ccc(Nc2ccc(N3CCCC3)nc2)nc1,0,-5
O=C(NCC1CCCO1)C1COC2(CCN(C(=O)c3ccccc3Cl)CC2)N1C(=O)c1ccc(F)cc1 (centres undefined),1,7
C=CCC(O)(CC=C)c1ccc(CN(CCC)Cc2ccccc2OC)o1,2,9
CC(C)N(CC(=O)N(CCc1c[nH]c2ccccc12)Cc1ccc(F)cc1)C(=O)CSc1ccccc1,3,16

structure,NPYLR7 ag,NPYLR7 ag max-min
COc1ccc(-c2nn(-c3ccccc3C)cc2CN(Cc2nccn2C)C(C)C)cc1F,2,0
CCCSc1ccc(C(=O)O)cc1,-3,-7
COC(=O)c1cc(CNc2ccc(C#N)cc2)oc1C,-1,-1
Cn1ccnc1SCc1cc(=O)c(OC(=O)C2(c3ccc(Cl)cc3)CCCC2)co1,-1,-3
O=C(NC(C1CC1)C1CC1)N1CCCC1c1ccccc1 (centres undefined),2,-1
COc1cccc(C(=O)Nc2cc(-n3cnnn3)ccc2F)c1OC(F)F,-2,-2
COCc1cc(N2CCN(c3ccccc3F)CC2)nc(SCc2ccc(C(=O)O)cc2)n1,8,17
O=C(CSC1=NCCS1)Nc1ncc([N+](=O)[O-])s1,6,1
O=C(CN(C1CC1)S(=O)(=O)c1ccc(F)cc1)N1CCc2sccc2C1c1ccc(Cl)cc1 (centres undefined),-2,10
CCOc1ncccc1C(=O)N1CCC2(CC1)C(=O)NCCCN2C,2,13
c1ccc2c(c1)SCCC2NC1CC2CC1C1CCCC21 (centres undefined),2,1
CCOC(=O)c1ccc(NC(=O)CSc2nnc(CNC(=O)c3ccco3)n2-c2cc(C)ccc2C)cc1,11,5
S=c1[nH]c2ccccc2n1-c1cc(-c2ccccc2)nn1-c1ccccc1,-2,-1
CCOC(=O)c1cnc(SC)nc1-c1cccc2ccnn12,3,2
CCC(=O)Nc1c2c(nn1C(C)(C)C)CSC2,-4,-5
CC(Cn1cncn1)NCc1noc(C2CCCC2)n1 (centres undefined),13,9
CCCCCCCCCCCCCC(=O)NCC(=O)Nc1cc(-c2ccccc2)nn1-c1ccc(C)cc1C,-1,7
Cc1cc(C)n(CC(=O)N2CCC(n3nccc3NC(=O)c3ccc4c(c3)OCO4)CC2)n1,3,2
Cc1c(C(=O)N2CCCC2C(=O)OCc2ccccc2)cnn1C (centres undefined),3,0
C=CCn1c(SCc2cccc(C(F)(F)F)c2)nnc1-c1ccccc1F,8,9
COCCCN(Cc1csc(COc2ccccc2C(C)C)n1)C(=O)c1ccccc1F,0,2
CCn1c(C)c(C(=O)CN(CCN2CCOCC2)C(=O)CCc2ccccc2)c(C)c1C(=O)OC,-12,-9
N#Cc1cc(O)ccc1[N+](=O)[O-],-4,4
Cc1ccc(CN(C)C(=O)CCl)o1,-1,1
CCc1ccc2c(c1)NC(=O)C2(C)Cc1ccccc1OC (centres undefined),1,4
O=c1cccnn1CCNS(=O)(=O)Cc1ccccc1,3,1
CCc1ccc(-c2nc(-c3ccc(C)cc3)no2)cc1,-7,-13
Cc1ccccc1OCC1c2ccsc2CCN1C(=O)CN(CC1CCCO1)C(=O)C1CCCC1 (centres undefined),-2,5
CCC(C)NC(=O)c1cc(-c2cccc(OC)c2)nc2cc(C(C)(C)C)nn12 (centres undefined),13,13
O=C(c1cc2nc(-c3ccco3)cc(C(F)(F)F)n2n1)N1CCc2ccccc2C1,-6,-14

Structure,NPYLR7 ag,NPYLR7 ag max-min
C=CCN(Cc1nccn1Cc1c(F)cccc1Cl)C(=O)C(C)C,3,12
CC(=O)N1CCN(c2ncccc2CNS(=O)(=O)N2CCCC2)CC1,17,5
COc1ccc(-c2nnc(NC(=O)C3CCCN3C(=O)Nc3c(C(C)C)cccc3C(C)C)s2)cc1 (centres undefined),-3,3
CCOc1cc2c(cc1CNC(=O)c1cc(OC)cc(OC)c1)OC(C)C2 (centres undefined),12,11
O=C(Cc1c(Cl)cccc1Cl)NNC(=O)Cn1cncn1,0,7
C=CCN(Cc1ccccc1Cl)C(=O)CN1CCCCCC1=O,11,3
CCOC(=O)c1c(C)oc2c(F)c(F)c(F)c(F)c12,-1,-2
CCOC(=O)N1CCN(C(=O)c2csc(CSc3nnc(-c4ccncc4)n3-c3cccc(Cl)c3)n2)CC1,-4,3

Structure,NPYLR7 ag,NPYLR7 ag max-min
COc1cc(Cl)c(S(=O)(=O)Nc2ccccn2)cc1Cl,1,1
COc1ccc(OC)c(-c2nc(CN3CCC(C(C)(C)O)CC3)c(C)o2)c1,-9,-10
O=C(CSc1nnc2ccc(-c3cccc([N+](=O)[O-])c3)nn12)NC1CCCCC1,-9,0
COc1ccc(Cc2nc(-c3ccc(NC(C)=O)cc3F)cs2)cc1OC,3,2
COc1ccc(N2C(=S)SC3CS(=O)(=O)CC32C)cc1 (centres undefined),13,5
COc1ccc(N2CCN(C(=O)CC(c3ccccc3)c3cn(Cc4ccccc4)c4ccc([N+](=O)[O-])cc34)CC2)cc1 (centres undefined),3,7
CCN(CC)c1nc(N2CCOCC2)nc(C)c1[N+](=O)[O-],10,4
O=C(c1ccc(S(=O)(=O)NC2CC2)o1)N1CCc2ccccc2C1,3,3

Structure,NPYLR7 ag,NPYLR7 ag max-min
O=c1oc2ccc3ccccc3c2cc1-c1nnc(Nc2ccc(Oc3ccc4ccccc4c3Cl)c(Cl)c2)s1,-5,-1
CC(=O)N1CCc2ccccc2C1CC(=O)N(C)Cc1n[nH]c(C)n1 (centres undefined),0,17
COC(=O)c1c(S(=O)(=O)NCc2ccccc2)sc(C(=O)O)c1C,3,1
CCOC(=O)C=C1SCC(=O)N1CC(=O)O,4,7
Cc1ccc(-n2nc(C(=O)NCc3ccco3)c(=O)n(Cc3cccc(F)c3)c2=O)cc1Cl,13,5

Random excerpt: two compounds from above.
Structure,NPYLR7 ag,NPYLR7 ag max-min
CCOC(=O)C=C1SCC(=O)N1CC(=O)O,4,7
Cc1ccc(-n2nc(C(=O)NCc3ccco3)c(=O)n(Cc3cccc(F)c3)c2=O)cc1Cl,13,5

Only part of the results is shown; count on the stated rates, not on these rows.
